Screening results from PubChem.
VDR inh = blocks the human vitamin D receptor; P11473; VDR-SRC2-3 peptide fluorescence polarization, 2 h; Potency, µM, inactives show max response, negative = inhibition, actives largely listed as inhibitors; hit rate 0.93% among 400,000; AID 504847; active = well fitted inhibition curve with a large enough effect; inconclusive = small, poorly fitted or top-dose-only effect, or another doubt; inactive = no such curve, though single readings can be large or run the other way; also: series mostly up to about 120 µM
Target sequence (P11473 whole entry, looked up): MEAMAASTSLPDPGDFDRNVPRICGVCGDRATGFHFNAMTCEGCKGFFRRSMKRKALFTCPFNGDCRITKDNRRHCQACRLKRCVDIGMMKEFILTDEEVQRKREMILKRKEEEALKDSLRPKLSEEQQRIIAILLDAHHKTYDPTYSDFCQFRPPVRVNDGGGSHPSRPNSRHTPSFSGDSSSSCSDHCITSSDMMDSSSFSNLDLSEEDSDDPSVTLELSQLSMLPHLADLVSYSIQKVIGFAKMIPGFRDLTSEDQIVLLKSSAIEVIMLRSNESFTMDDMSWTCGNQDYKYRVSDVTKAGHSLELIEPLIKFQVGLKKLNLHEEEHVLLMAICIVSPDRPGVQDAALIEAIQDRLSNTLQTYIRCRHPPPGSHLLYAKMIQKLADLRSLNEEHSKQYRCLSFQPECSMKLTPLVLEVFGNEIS
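The screen uses fluorescence polarization to detect compounds that interfere with recruitment of the SRC2-3 coactivator peptide to VDR; plates are read after 2 h at room temperature.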
* marks the source's active call; other numbers are inactive results; u = inconclusive; & = joins results of further samples. % is scaled to controls: 0 for no effect and ±100 for the full control effect; potency is read from the fitted curve at half-maximal effect. A portion of the library (hit frequency here may not be typical).

SMILES	VDR inh
O=C(CCc1nnc2n(CCc3ccccc3)c(=O)c3ccccc3n12)NCCCN1CCCCC1	11%
C=CCOc1cccc(C2C(C(=O)c3ccco3)=C(O)C(=O)N2Cc2cccnc2)c1 (stereo not given)	-7%
Cc1cc(C)cc(NC(=O)CN2C(=O)CCc3cc(S(=O)(=O)N4CCCCC4)ccc32)c1	-6%
Cc1c(CN2CCc3c([nH]c4ccccc34)C2C2CCCCC2)cnn1C (stereo not given)	8%
O=C(COC(=O)C1(c2ccc(F)cc2)CCCC1)NCc1ccco1	0%
O=C(NCCOc1ccccc1)c1ccccc1Cl	-5%
CCCCCCCNC(=O)C1(CC2CC(c3ccc(Cl)cc3)=NO2)CCN(C(=O)Cc2ccc(F)cc2)CC1 (stereo not given)	-19%
CN(Cc1nc(Cc2ccccc2F)no1)Cc1cccc2ncccc12	-20%
O=C(C1CCC1)N1CCN(S(=O)(=O)c2cccc(F)c2)CC1	1%
COc1ccc(OC)c(S(=O)(=O)Nc2ccccc2C)c1	-4%
Cc1cc(Cl)ccc1N=c1ssnc1Cl	u
CCCCN(C(=O)Cn1nnc2ccccc21)C(C(=O)NCCOC)c1ccccc1 (stereo not given)	17%
CC(=O)Nc1ccc(S(=O)(=O)Nc2ccn(Cc3ccccc3Cl)n2)cc1	-13%
Cc1ccc(C(=O)N/C(=C\c2ccc(C(C)C)cc2)C(=O)NCCCN2CCOCC2)cc1	-2%
COc1cc2[nH]c(=O)c(C(=O)NCc3ccccc3Cl)c(O)c2cc1OC	-5%
O=c1c(S(=O)(=O)c2ccccc2)cn(Cc2ccccc2)c2cc(N3CCCC3)c(F)cc12	8%
CCc1ccc(NC(=O)CSc2nccn(-c3ccc4c(c3)OCCO4)c2=O)cc1	u
c1ccc(-c2noc(CSc3nnnn3C3CCCCC3)n2)cc1	12%
Cc1cccc(NC(=O)CN(C)S(=O)(=O)c2ccccc2)n1	-2%
CCn1c(=N)n(CC(=O)c2cccc([N+](=O)[O-])c2)c2ccccc21	-16%
CN(C)c1cccc(C(=O)OC(C(=O)Nc2ccc([N+](=O)[O-])cc2Br)c2ccccc2)c1 (stereo not given)	-19%
COc1ccc(C(=O)NC(=S)NNC(=O)c2cccc(C)c2)cc1	-13%
CCN(CC)C(=O)[C@H]1C[C@H](CC(=O)NCCCN(C)C)C(=O)N2CCc3c([nH]c4ccc(Cl)cc34)[C@]12C	-21%
CCN1CCN(c2c(Cl)cccc2NC(=O)c2cc3ccccc3o2)CC1	8%

Compounds from the list above that have an aryl methoxy group:
SMILES	VDR inh
COc1ccc(OC)c(S(=O)(=O)Nc2ccccc2C)c1	-4%
COc1cc2[nH]c(=O)c(C(=O)NCc3ccccc3Cl)c(O)c2cc1OC	-5%
COc1ccc(C(=O)NC(=S)NNC(=O)c2cccc(C)c2)cc1	-13%

(continued)
SMILES	VDR inh
Cc1ccc(NC(=S)Nn2cnnc2)cc1	-18%
CCOC(=O)c1ccc(N2C(=O)c3n[nH]c(-c4cccs4)c3C2c2ccc(Cl)cc2Cl)cc1 (stereo not given)	-12%
Cc1ccc(NCc2nnc(SCCN3CCCCC3)n2CC2CCCO2)c(C)c1 (stereo not given)	5%
COc1cc(C(=O)Nc2nc3ccccc3s2)ccc1OCc1c(C)noc1C	16%
NS(=O)(=O)c1ccc2c(c1)C1C=CCC1C(C1CC=CCC1)N2 (stereo not given)	-2%
CCN1C(=O)/C(=C2\SC(=S)N(CCCOC)C2=O)c2ccccc21	-9%
CCCCN1C2=C(C(=O)CC(C)(C)C2)C(c2ccccc2)C2=C1c1ccccc1C2=O (stereo not given)	0%
Cn1c(=O)c2c(ncn2CCN(CCO)Cc2ccccc2)n(C)c1=O	-5%
CC(=O)c1ccc(N2CCN(CC(O)COCc3ccco3)CC2)cc1 (stereo not given)	-15%
C#CCNC(=O)/C=C/c1ccc(OC)cc1	-22%
O=C(NCCCN1CCCC1=O)c1cccc(NS(=O)(=O)c2ccc(Br)cc2)c1	-8%
COc1ccc(NC(=O)c2cccs2)cn1	9%

As entered above:
O=C(NCCCN1CCCC1=O)c1cccc(NS(=O)(=O)c2ccc(Br)cc2)c1 | VDR inh: -8%
Cc1ccc(NC(=S)Nn2cnnc2)cc1 | VDR inh: -18%
COc1cc(C(=O)Nc2nc3ccccc3s2)ccc1OCc1c(C)noc1C | VDR inh: 16%
CCN1C(=O)/C(=C2\SC(=S)N(CCCOC)C2=O)c2ccccc21 | VDR inh: -9%
CC(=O)c1ccc(N2CCN(CC(O)COCc3ccco3)CC2)cc1 (stereo not given) | VDR inh: -15%
Cn1c(=O)c2c(ncn2CCN(CCO)Cc2ccccc2)n(C)c1=O | VDR inh: -5%

Later entries.
SMILES	VDR inh
CCOc1ccc(NC(=O)CCNS(=O)(=O)c2ccc3c(c2)c(=O)n(C)c(=O)n3C)cc1	2%
CN(CC(=O)Nc1ccc(Cl)c(C(F)(F)F)c1)C(=O)c1cc(=O)[nH]c2ccccc12	-10%
CCOc1ccc(NC(=O)NCc2cccn2Cc2ccccc2)cc1	14%
Cc1ccc(S(=O)(=O)N2CCOCC2)cc1NC(=O)COC(=O)CNC(=O)c1ccc(C(C)(C)C)cc1	9%
Cc1cc2ccccn2c1C(=O)c1ccc(N/N=C/c2ccc(C(=O)O)cc2)c([N+](=O)[O-])c1	-8%
O=S1(=O)CC(NCc2ccccc2)C(Nc2ccc(Cl)cc2)C1 (stereo not given)	-16%
CC(OC(=O)Cc1c[nH]c2ccccc12)C(=O)Nc1ccccc1[N+](=O)[O-] (stereo not given)	1%
O=C(Cn1cnc2c(nnn2Cc2ccc(F)cc2)c1=O)NCc1ccc(F)cc1	-12%
C/C(N)=C(/C#N)C(=O)CSc1nnc(-c2ccc3c(c2)OCO3)o1	-23%
Cc1cnc(NC(=O)COc2ccc3c(c2)CCC3)s1	-11%
CCOc1ccccc1OCCC(=O)OCC(=O)Nc1c(C)nn(-c2ccccc2)c1C	u
COc1cc(NC(=O)CSc2nnnn2Cc2ccccc2)cc(OC)c1	1%
O=C(c1ccc2c(c1)OCO2)N(c1ccc(F)cc1)C1C=CS(=O)(=O)C1 (stereo not given)	-15%
Cc1c(Cl)cnc(NC(=O)CSc2nnnn2C)c1Cl	-18%
COC(=O)c1cc(S(=O)(=O)N2c3ccccc3CC2C)cn1C (stereo not given)	-12%
CCn1cc(S(=O)(=O)c2cc(C)cc(C)c2)c(=O)c2cc(F)c(N3CCN(c4ccccc4)CC3)cc21	18%
Cc1ccccc1OCC(=O)N(Cc1ccc(N(C)C)cc1)C1CCS(=O)(=O)C1 (stereo not given)	-1%
Clc1ccc(-c2nnc(COc3ncnc4ccccc34)o2)cc1	-3%
O=C(CN1CCN(Cc2ccccc2)CC1)N/N=C/c1ccco1	1%
O=[N+]([O-])c1ccc(NCCc2ccccc2)c(Br)c1	-14%
COC(=O)c1[nH]c2ccccc2c1NC(=O)CN1CCN(c2cccc(Cl)c2)CC1	13%
O=C1c2ccccc2C(=O)N1CCCCSc1nnnn1-c1ccccc1	-13%
Cc1ccccc1Cn1nnc2c(=O)[nH]c(C3CCCN(C(=O)c4ccc(F)cc4)C3)nc21 (stereo not given)	4%
COc1cc(C2CC(=O)Oc3ccc(C(C)(C)C)cc32)cc(OC)c1OC (stereo not given)	1%&-4%
Cn1c(=O)c2c(c3ccccc31)OC(=O)CC2c1ccccc1 (stereo not given)	-2%
CN1CCN(c2nc(-c3cccnc3)nc3scc(-c4ccccc4)c23)CC1	3%
CC(=O)N1c2ccc(S(=O)(=O)NCC3CCC(C(=O)NC(C)(C)C)CC3)cc2CC1C (stereo not given)	5%
O=c1c2ccccc2c(-c2ccccc2)nn1-c1ccccn1	10%
CCCCS(=O)(=O)C(=C1Nc2ccccc2N1)S(=O)(=O)CCCC	7%
CCOc1ccc(-n2c(SCC(N)=O)nc3c(c2=O)SCC3)cc1	-8%
CCOC(=O)C1CCC(CN(Cc2ccc(OC)cc2)S(=O)(=O)c2ccc(F)c(C(=O)Nc3cc(C)ccc3C)c2)CC1 (stereo not given)	10%
CC1=Nn2c(nnc2C2CCCCC2)SC1	-15%
CCOc1cc(NC(=S)NCCCN2CCOCC2)c(OCC)cc1NC(=O)C1CC1	1%
Cc1ccc(CNC(=O)CCCn2c(=O)[nH]c3ccc(Br)cc3c2=O)cc1	-9%
O=C(NC(=S)Nc1ccccc1)c1cc([N+](=O)[O-])ccc1N1CCOCC1	-15%
COC(=O)N1CCC2(CCN(Cc3cc(C(F)(F)F)cc(C(F)(F)F)c3)CC2)CC1	-1%
O=C(NCCOc1ccc(F)cc1)C1CCC(=O)N(CCCN2CCOCC2)C1 (stereo not given)	-3%
c1ccc2c(CSCCc3ccncc3)cccc2c1	-4%
CC(=O)N1c2ccccc2CC1C(=O)N1CCN(c2ccc(F)cc2)CC1 (stereo not given)	14%
Cn1c(CNC(=O)CSc2nc(-c3ccccc3F)nc3cc(=O)[nH]n23)nc2ccccc21	4%
Cc1ccc(C)c(N2CCN(C(=O)c3cc4ccc5cccnc5c4[nH]3)CC2)c1	11%
Cc1cccc(NC(=O)CN(c2ccc(C(C)C)cc2)S(=O)(=O)c2c(C)nn(C)c2C)c1C	-17%
COc1ccc(Cn2c(CCC(=O)NCc3ccc(Cl)cc3)nc3cccnc32)cc1	-27%
Cc1ccc2nc(NC(=O)C3CCN(S(=O)(=O)c4cnc[nH]4)CC3)sc2c1	4%
Cc1cccc(NC(=S)NCCc2ccccc2)c1C	-11%
CC(C)(C)CN1CCNC[C@H]1Cc1cccc2ccccc12	0%
CCOc1ccc(C(C)NC(=O)c2cccnc2OCC)cc1OCC (stereo not given)	6%
CCc1ccc(OCc2cc(=O)n3c4c(sc3n2)CCCC4)cc1	-1%

An excerpt from above in order of the VDR inh value, lowest first:
SMILES	VDR inh
c1ccc2c(CSCCc3ccncc3)cccc2c1	-4%
CC(C)(C)CN1CCNC[C@H]1Cc1cccc2ccccc12	0%
Cc1ccc2nc(NC(=O)C3CCN(S(=O)(=O)c4cnc[nH]4)CC3)sc2c1	4%
Cc1ccc(C)c(N2CCN(C(=O)c3cc4ccc5cccnc5c4[nH]3)CC2)c1	11%
CC(=O)N1c2ccccc2CC1C(=O)N1CCN(c2ccc(F)cc2)CC1 (stereo not given)	14%

Remaining list, next part.
SMILES	VDR inh
COc1ccc(CNC(=O)C(NC(C)=O)C(=O)Nc2ccc(C(C)C)cc2)cc1 (stereo not given)	-19%
Cc1ccc(CSc2nc3ccc(NC(=O)COc4ccc(F)cc4)cc3s2)cc1	2%
COc1ccc(-c2nnc(-c3cc4c(ccc5ccccc54)oc3=O)o2)cc1	-6%
CCOc1ccc(NC(=S)N(CCc2c(C)[nH]c3ccccc23)Cc2ccco2)cc1	0%
O=C(CN(c1ccc(F)cc1)S(=O)(=O)c1ccccc1)NCc1ccco1	8%
CC(NC(=O)c1ccc([N+](=O)[O-])cc1Cl)C1CC2CCC1C2 (stereo not given)	-1%
CC(=O)c1cc(CN2CCC(C(=O)Nc3cccc(-c4cscn4)c3)CC2)cs1	12%
Cc1ccc(CNC(=O)CCN2C(=O)[C@@H]3Cc4ccccc4CN3C2=O)cc1	13%
CCOc1ccc(N(CC(=O)N2CCCC2)S(=O)(=O)c2ccc(F)cc2)cc1	-15%
COC(=O)[C@@H](Cc1ccccc1)N(Cc1ccccc1)S(=O)(=O)N(Cc1ccccc1)[C@H](Cc1ccccc1)C(=O)OC	-3%
CCc1cc2c(cc3c(=O)n(CC(=O)NCc4cc(Br)ccc4OC)ncn32)s1	-1%
CC(NC(=O)C(=O)N1CCOCC1)C(c1cccs1)N1CCN(c2ccc(F)cc2)CC1 (stereo not given)	-6%
Cc1ccc(C(=O)COC(=O)COc2ccc(C)c(C)c2)cc1	-2%
COCCN(C(=O)CNC(=O)c1ccco1)C(C(=O)NC1CCCC1)c1cccs1 (stereo not given)	8%
COc1ccccc1N1CCN(C(=O)CN(Cc2ccccc2)S(C)(=O)=O)CC1	-9%
CSc1cccc(NC(=S)N2CCC(N(C)C3CCCCCC3)CC2)c1	11%
CN(C)CCCNCC(=O)NN(c1ccccc1)c1ccccc1	8%
CCOc1ccc(CCNC(=O)C2CCCN(C(=O)N(C)C)C2)cc1OCC (stereo not given)	-2%
O=[N+]([O-])c1ccc(COn2nnc3ccccc32)cc1	5%
S=C(NCc1ccccc1)NN1CCOCC1	-11%
O=C(CN1C(=O)CSc2ccccc21)Nc1ccccc1C(=O)N1CCOCC1	4%
Cn1c(=O)c2c(nc(OCc3ccccc3)n2C)n(C)c1=O	12%
CC(=O)NC(C(=O)NCC(N)=O)C(C)C (stereo not given)	16%
CN1CCN(C(=O)COCc2cc(-c3ccc4c(c3)OCO4)on2)CC1	-13%
CN1CCN(c2oc(-c3ccccc3Cl)nc2S(=O)(=O)c2ccccc2)CC1	-5%
CC(C)(C)C(=O)Nc1nnc(SCC(=O)NCc2cccs2)s1	7%
CC(=O)Oc1ccc(OC(C)=O)c(SCCCCCCl)c1	12%
Cc1ccnc(NC(=O)c2ccc(NC(=O)c3ccco3)cc2)c1	-12%
O=C(CSc1nnc(-c2ccccc2)n1-c1ccc(Cl)cc1)NC1CCS(=O)(=O)C1 (stereo not given)	-20%
COc1ccc(S(=O)(=O)N2CN(Cc3ccco3)c3nc4ccccc4nc32)cc1	-4%
CNc1ccc(-c2nc(-c3ccccc3C)no2)cc1[N+](=O)[O-]	19%
COC(=O)C1CCN(C(=O)[C@H](C)NC(=O)C2CC(=O)N(c3ccc(F)cc3)C2)CC1 (stereo not given in full)	7%
O=C(NCc1ccccc1)[C@@H]1C[C@H]1[C@@H](NP(=O)(c1ccccc1)c1ccccc1)c1ccccc1	-14%
CCCNC(=O)N1CCCN(S(=O)(=O)c2ccc3c(ccn3CC)c2)CC1	2%
COc1ccc(Cl)cc1C(=O)Nn1cnnc1	-3%
CC(Oc1ccccc1)C(=O)Nc1ccccc1F (stereo not given)	-7%
Nc1c(-c2ccc(Cl)cc2)cnc2c(-c3ccc(F)cc3)cnn12	-20%
CCOC(=O)N1CCC(NS(=O)(=O)c2cc(C(=O)OC)n(C)c2)CC1	-2%
COc1ccc(Cl)cc1Nc1nc2ccc(C)cc2n2cnnc12	-3%
